High-throughput results: PubChem, National Center for Advancing Translational Sciences (NCATS)
FEN1 inhibitor: inhibitors of human flap endonuclease 1 | P39748 | Recombinant FEN1 flap cleavage, fluorescence, 15 min | Potency, µM (top dose mostly 114 µM), for the others: at the top dose activity change, negative = inhibition, actives largely listed as inhibitors | 390,000 compounds, 0.35% hits | AID 588795; also: nearly all actives have a fitted effect of over 65% in size
Target sequence (P39748 whole entry, looked up): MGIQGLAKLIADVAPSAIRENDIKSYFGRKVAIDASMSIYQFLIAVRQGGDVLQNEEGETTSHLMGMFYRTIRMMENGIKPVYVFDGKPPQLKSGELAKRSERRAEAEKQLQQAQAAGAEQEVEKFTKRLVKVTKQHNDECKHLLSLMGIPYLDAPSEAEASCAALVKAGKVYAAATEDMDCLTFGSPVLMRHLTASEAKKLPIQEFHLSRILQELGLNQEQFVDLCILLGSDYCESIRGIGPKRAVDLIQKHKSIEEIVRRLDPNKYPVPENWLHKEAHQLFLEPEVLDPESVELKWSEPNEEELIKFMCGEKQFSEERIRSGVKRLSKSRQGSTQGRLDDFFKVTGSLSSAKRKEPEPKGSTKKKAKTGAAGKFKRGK
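Quantitative HTS format: each compound was titrated, incubated with 10 nM nuclease for 15 min at room temperature, then challenged with flap substrate at 50 nM final. Signal change over 15 min gave concentration–effect curves.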
N370S GC: inhibitors or activators of N370S glucocerebrosidase for Gaucher disease; Potency, µM (series often up to 59.4 µM), without a hit: top-dose activity change, negative = inhibition, most hits filed as inhibitors; AID 2101; P04062; N370S GC spleen homogenate, 4MU-glucoside fluorescence; 330,000 compounds, 0.092% hits;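 also: 0% = full enzyme activity and -100% = no enzyme basal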
Active calls of the source: *; ? = inconclusive; . = not tested or not shown; & = joins results of further samples. Calls follow the shape of the dose curve; as a rule, active = well fitted curve in the direction sought with a large enough effect; inconclusive = small, poorly fitted or top-dose-only effect, or another doubt; inactive = no such curve, though single readings can be large; an effect the other way counts as inactive or inconclusive. Unless noted, % is scaled to controls: 0 for no effect and ±100 for the full control effect; potency is read from the fitted curve at half-maximal effect. This is a subset; most or all hits stand in other tables.

Start of the data: the first 5 records (preview)
Every second line gives: FEN1 inhibitor | N370S GC
- CCOc1ccccc1-n1c(SCC(N)=O)nc2ccccc2c1=O
 : 1% | -2%
- Nc1cnn(C2CCCO2)c(=O)n1 (configuration not stated)
 : -4% | -16%
- Cn1c(SCc2ccccc2)nc2ccsc2c1=O
 : -2% | 13%
- O=C(NCC(c1cccs1)N1CCOCC1)c1cn(-c2ccccc2)nc1-c1ccc(F)cc1 (configuration not stated)
 : -13% | 4%
- O=C(Nc1nnc(-c2ccccc2)o1)NC1CCCCC1
 : -4% | 11%

The listing, from the first entry:
Every second line gives: FEN1 inhibitor | N370S GC
- CCOc1ccccc1-n1c(SCC(N)=O)nc2ccccc2c1=O
 : 1% | -2%
- Nc1cnn(C2CCCO2)c(=O)n1 (configuration not stated)
 : -4% | -16%
- Cn1c(SCc2ccccc2)nc2ccsc2c1=O
 : -2% | 13%
- O=C(NCC(c1cccs1)N1CCOCC1)c1cn(-c2ccccc2)nc1-c1ccc(F)cc1 (configuration not stated)
 : -13% | 4%
- O=C(Nc1nnc(-c2ccccc2)o1)NC1CCCCC1
 : -4% | 11%
- Cc1ccc(C(NC(=O)N2CC(C)OC(C)C2)C(Cl)Cl)cc1F (configuration not stated)
 : 5% | 6%
- Cc1ccc(NC(=O)CSc2ccc(-c3sc(-c4ccccc4)nc3C)nn2)cc1F
 : 2% | .
- COc1cc(C(=O)NC(C)C2CC3CCC2C3)ccc1OC(F)F (configuration not stated)
 : -12% | .
- Cc1cccc(CS(=O)(=O)Cc2ccc(C(=O)NC(C)c3ccccc3)o2)c1 (configuration not stated)
 : 2%&-3% | -8%
- COc1ccc(C2(C)NC(=O)N(CC(=O)NCCC3=CCCCC3)C2=O)cc1OC (configuration not stated)
 : 2% | 3%
- O=C(O)C1C2C=CC3(O2)C1C(=O)N1c2ccccc2COC13 (configuration not stated)
 : -1% | 2%
- O=C(O)CCCCCNS(=O)(=O)c1cccc2c1C(=O)c1ccccc1C2=O
 : 6% | 16%
- CC[C@H](C)[C@H](NC(N)=O)C(=O)Nc1ccc2c(c1)OCO2
 : -3% | 7%
- COC(=O)[C@@H]1C2CC3c4[nH]c5cc(OC)ccc5c4CCN3CC2C[C@H](OC(=O)c2cc(OC)c(OC)c(OC)c2)C1OC (some centres not stated)
 : . | -23%
- CC[C@]12c3[nH]c4cc(CCC(=O)N(C)C)ccc4c3CCN1C(=O)[C@@H](CC(=O)NCCN1CCOCC1)C[C@@H]2C(=O)N1CCN(C(=O)c2ccco2)CC1
 : -6% | .
- O=C(NCC(c1ccco1)N1CCCC1)c1cc(=O)[nH]c2ccccc12 (configuration not stated)
 : -3% | .
- Cc1ccc(CCC(=O)Nc2ccccc2C(=O)O)o1
 : -5% | -1%
- COc1ccc2nc(SCC(=O)Nc3ccc(S(=O)(=O)Nc4onc(C)c4C)cc3)[nH]c2c1
 : -3% | 30%
- CN(C)S(=O)(=O)c1cccc(NC(=O)CCNC(=O)c2ccccc2Cl)c1
 : 2% | 6%
- O=[N+]([O-])c1ccc2nc(-c3cccnc3)[nH]c2c1
 : -23% | -12%
- Cc1cccc(NC(=O)/C(C#N)=C\c2cn(CC(=O)O)c3ccccc23)c1
 : -5% | 2%
- Cc1ccc2ncc(C(=O)c3ccc(C)c(C)c3)c(S(=O)(=O)c3ccccc3)c2c1
 : 1% | .
- CC1(C)CC(=O)c2ccc(O)cc2O1
 : 3% | 7%
- Cc1ccc(C2C(C(=O)c3sc(C)nc3C)=C(O)C(=O)N2CCN(C)C)o1 (configuration not stated)
 : -13% | -5%
- C=C(C)Cn1cnc2c(oc3nc4c(cc32)CCCC4)c1=O
 : 8% | 5%
- CCn1c(SCC(=O)NCc2ccccc2)nc2ccccc2c1=O
 : 8% | 19%
- CN(/C(=N/S(=O)(=O)c1cccs1)c1ccccc1)c1ccc(O)cc1
 : 0% | -11%
- CSC1=NC(C)(C)CC2(C)Nc3ccccc3N12 (configuration not stated)
 : 2% | 19%
- NC(=O)c1ccc(CN2CCC(Cc3ccccc3)CC2)cc1
 : 9% | -5%
- COc1ccccc1-c1cc(C(=O)NC(C)C)no1
 : 3% | 3%
- CCCN1CCN(c2ccc(S(N)(=O)=O)cc2[N+](=O)[O-])CC1
 : 5% | -4%
- COCCn1c(C)cc(/C=N/NC(=O)c2cc3ccccc3cc2O)c1C
 : 7% | .
- COc1cccc2c(=O)cn[nH]c12
 : -5% | -11%
- N/C(=N\c1nc2c(c(=O)[nH]1)CCCC2)Nc1ccc(Oc2ccccc2)cc1
 : -6% | 17%
- S=c1[nH]c(-c2ccccc2)cs1
 : 0% | -10%
- CC1(C)Cc2nc(N3CCCC3)c(C#N)cc2CO1
 : 3% | ?
- COc1ccc(N2CCN(C(CNS(=O)(=O)c3cc(F)ccc3F)c3cccnc3)CC2)cc1 (configuration not stated)
 : 0% | -12%
- COc1ccc(CCNC(=O)c2coc3ccccc3c2=O)cc1
 : -16% | -22%
- COCCN1CCN(C(=O)c2cc(COc3cc(C)ccc3C)on2)CC1
 : 2% | -5%
- CCc1nc2nc(C)cc(Nc3cc(Cl)ccc3C)n2n1
 : -5% | .
- CCc1ccc(NC(=O)c2sc3nc(C)nc(N4CCN(c5ccccn5)CC4)c3c2C)cc1
 : -21% | -5%
- Cc1nnsc1C(=O)N/N=C/c1ccccc1
 : -5% | 8%
- Cc1cccc(-n2cc(CN(C)Cc3nccn3C)c(-c3cccc(F)c3)n2)c1
 : -10% | -28%
- CCC[n+]1cn(/C(C(=S)Nc2cccc(Cl)c2C)=C(/[O-])c2ccc(OC)c(OC)c2)c2ccccc21
 : -3% | 4%
- CCc1ccc(CN(C)Cc2nc(Cc3ccccc3)no2)nc1
 : 9% | 15%
- Nc1ccc(N2CCCCC2)c(Cl)c1
 : -12% | -6%
- CCOc1ccc2c(c1)OC(c1ccccc1)(C(F)(F)F)NC2=O (configuration not stated)
 : 3% | 2%
- CC(NS(=O)(=O)c1ccc(CCC(=O)N2CCN(C)CC2)cc1)c1ccccc1 (configuration not stated)
 : -5% | -5%
- CCOC(=O)C1=C(C)N(c2ccccc2)C(=O)C1CC(=O)O (configuration not stated)
 : 6% | -14%
- Nc1c(C(=O)CSc2nc(-c3ccccc3)cs2)c(=O)[nH]c(=O)n1C1CC1
 : 20% | .
- O=C(CN1C(=O)C2C3C=CC(C3)C2C1=O)Nc1nncs1 (configuration not stated)
 : 0% | -2%
- CCn1cc(S(=O)(=O)CC(=O)NC2CCCCC2)c2ccccc21
 : 5% | -6%
- CC(C)NC(=O)Cn1cc(C(=O)C2CC2)c2ccccc21
 : 12% | 11%
- O=C(c1ccccc1Cl)N1N=C(c2cccs2)CC1c1cccc(O)c1 (configuration not stated)
 : -9% | ?
- O=C(NCCC1=CCCCC1)C1CCCN(S(=O)(=O)c2ccccc2)C1 (configuration not stated)
 : -7% | 15%
- COC(=O)c1ccc(/C=C(/NC(=O)c2ccccc2)C(=O)N2CCOCC2)cc1
 : 21% | -7%
- COc1ccccc1NC(=O)C1=C(C)NC(SCC(=O)c2ccccc2)=C(C#N)C1c1ccco1 (configuration not stated)
 : 1% | 3%
- CCCCCC/C=C\CCCCCCCc1cccc(O)c1C(=O)O
 : . | 2%
- O=C(Nc1ccc(OC(F)(F)F)cc1)C1CCN(S(=O)(=O)c2cccs2)CC1
 : -28% | .
- Cc1ccc(S(=O)(=O)NCCN(CCNS(=O)(=O)c2ccc(C)cc2)S(C)(=O)=O)cc1
 : 1% | -13%

Reformatted with the structure last: part of the list above.
FEN1 inhibitor	N370S GC	mol
-10%	-28%	Cc1cccc(-n2cc(CN(C)Cc3nccn3C)c(-c3cccc(F)c3)n2)c1
-3%	4%	CCC[n+]1cn(/C(C(=S)Nc2cccc(Cl)c2C)=C(/[O-])c2ccc(OC)c(OC)c2)c2ccccc21

Next records follow:
Every second line gives: FEN1 inhibitor | N370S GC
- CCCCCCOc1ccc(N2C(=O)CC(N3CCN(C(=O)c4ccco4)CC3)C2=O)cc1 (configuration not stated)
 : -9% | -5%
- CCOCCCNC(=O)c1oc2ccc(S(=O)(=O)N3CCOCC3)cc2c1C
 : -3% | 2%
- Cc1ccc(C(=O)NNC(=O)c2cccc(S(=O)(=O)N3CCN(c4ccccc4)CC3)c2)cc1
 : -6% | 25%
- CN(Cc1cccs1)C(=O)CN1CCN(S(=O)(=O)c2ccc3c(c2)OCCCO3)CC1
 : 0% | -3%
- Cc1nn(CC(=O)N2N=C(C(F)F)CC2(O)C(F)F)c(C)c1[N+](=O)[O-] (configuration not stated)
 : -4% | 9%
- Cc1ccc(NC(=O)NCCCN2CCCC2=O)c(C)c1
 : 20% | 3%
- Cc1cc(Nc2cccc(Cl)c2)nc2ccc(NC(=O)COc3ccc(Cl)cc3)cc12
 : 15% | .
- O=C(NCCCN1CCOCC1)c1ccc2c(c1)N(Cc1c(F)cccc1Cl)C(=O)CS2
 : -2% | -15%
- CCCn1nnc(NC(=O)c2cc3ccccc3o2)n1
 : 6% | -9%
- Cc1ccc(NC(=O)CN(C)Cc2nc3c(Br)cc(Br)cc3c(=O)[nH]2)cc1
 : 1% | 5%
- Cc1ccc(NC(=O)CN2C(=O)/C(=C3\SC(=S)N(C4CCS(=O)(=O)C4)C3=O)c3ccccc32)cc1 (configuration not stated)
 : -1% | 6%
- N#CC1CCN(C(=O)c2ccc3c(Cl)c4c(nc3c2)CCCC4)CC1
 : -1% | -11%
- CCCn1cnc2c(cnn2-c2ccc(F)cc2)c1=O
 : -4% | 9%
- O=S(=O)(c1ccc(Cl)c(NC(=S)N/N=C/c2c(F)cccc2F)c1)N1CCOCC1
 : -15% | 0%
- CC(=O)N1CC[n+]2c(-c3ccc(Cl)cc3Cl)csc21
 : 13% | -29%
- COc1ccc(-c2noc(CCC(=O)NCCCN3CCC(C)CC3)n2)cc1
 : 10% | 17%
- Cc1ccc(NC(=O)CN(C)C(=O)CSc2nnc(N)s2)cc1
 : -8% | .
- COC(=O)C1CCN(Cc2cn(-c3ccccc3)nc2-c2ccc3c(c2)OCO3)CC1
 : 11% | -10%
- Cc1c(C(=O)N(C)c2ccccc2)sc2nc(-c3ccc(F)cc3)cn12
 : -6% | .
- Cc1coc2cc3oc(=O)cc(C)c3cc12
 : 1% | 1%

Complete entries from above. Order of values: FEN1 inhibitor | N370S GC
CCOCCCNC(=O)c1oc2ccc(S(=O)(=O)N3CCOCC3)cc2c1C is listed as -3% | 2%
Cc1ccc(NC(=O)NCCCN2CCCC2=O)c(C)c1 is listed as 20% | 3%
Cc1c(C(=O)N(C)c2ccccc2)sc2nc(-c3ccc(F)cc3)cn12 is listed as -6% | .

Two entries drawn at random from those above:
Every second line gives: FEN1 inhibitor | N370S GC
- N#CC1CCN(C(=O)c2ccc3c(Cl)c4c(nc3c2)CCCC4)CC1
 : -1% | -11%
- CN(Cc1cccs1)C(=O)CN1CCN(S(=O)(=O)c2ccc3c(c2)OCCCO3)CC1
 : 0% | -3%

New compounds follow:
Every second line gives: FEN1 inhibitor | N370S GC
- O=S(=O)(Nc1nccs1)c1ccc2c(c1)OCCO2
 : 2% | 6%
- Cc1csc(NC(=O)c2cc(-c3ccncc3)nc3ccccc23)n1
 : 1% | -10%
- Cc1ccc2cc(CN(CC3CCCO3)S(=O)(=O)c3c(C)ccc4nsnc34)c(=O)[nH]c2c1 (configuration not stated)
 : -1% | 6%
- O=C(C(=O)N1CC=C(c2ccccc2)CC1)c1c[nH]c2ccccc12
 : -15% | -11%
- O=c1c2ccccc2nc(-c2ccc(F)cc2)n1NCc1ccccc1O
 : 6% | 6%
- CCCCNc1cc(=O)n(C)c(=O)[nH]1
 : -7% | 22%
- CCCC(C)C(=O)Nc1ccc(S(N)(=O)=O)cc1 (configuration not stated)
 : 0% | 6%
- NC1=NC(=O)/C(=C/c2cn(CCC(=O)O)nc2-c2ccc(F)cc2)S1
 : -15% | -3%
- COc1ccc(/C=N/NC(=O)c2ccc(O)cc2)cc1CN1CCCc2ccccc21
 : -20% | -16%
- O=C1c2ccccc2C(Nc2ccccc2)N1c1cccnc1 (configuration not stated)
 : 14% | 7%
- Cc1cc(C(=O)N2CCCC(N3CCN(c4cccc(Cl)c4)CC3)C2)nc(C)n1 (configuration not stated)
 : 4% | -18%
- CCN(CC1CCCO1)C(=O)CCc1nnc(CCc2ccccc2OC)o1 (configuration not stated)
 : 13% | -3%
- CN(C(=O)CS(=O)(=O)c1cn(CC(=O)N2CCCCC2)c2ccccc12)c1ccccc1
 : -1% | -4%
- CCn1c(CCc2ccccc2)nnc1SCC(N)=O
 : -15% | 2%
- Cc1cc(C)c(C)c(S(=O)(=O)N2CCN(C(=O)c3cc(S(=O)(=O)N4CCOCC4)ccc3F)CC2)c1C
 : 5% | .
- CC(C)C(NC(=O)c1ccccc1F)C(=O)NCc1ccc(S(=O)(=O)N2CCOCC2)cc1 (configuration not stated)
 : -11% | -7%
- CSCCC(NC(=O)c1ccccc1)C(=O)NCc1ccco1 (configuration not stated)
 : -14% | 1%
- Cc1nc(S(=O)(=O)Cc2ccc(Cl)cc2)nc2c1CCC2
 : 1% | 5%
- CCCc1ccc(OCC(=O)Nc2sc(C(=O)OCC)c(C)c2C(=O)OCC)cc1
 : -3% | .
- CCN(CC)S(=O)(=O)c1cccc(NC(=O)COC(=O)c2ccc(Br)o2)c1
 : -19% | 2%
- CCOC(=O)C(=NCCCN(C)C)NNc1cc(C(F)(F)F)ccc1Cl
 : 5% | 0%
- Cc1ccc(CNC(=O)CCC(=O)c2cccs2)cc1
 : -15% | 18%
